# Bioassay records deposited in PubChem BioAssay by Broad Institute.
# Env fusion inh = blocks HIV Env-driven cell-cell fusion | inhibition, % at 12.3 µM | HeLa-JRFL Env/CEM21 cell fusion, luciferase | 360,000 tested, 1.1% active;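 active = mean replicate inhibition score of at least 50 and every replicate individually at or above 50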;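 also: 0% = plate neutral controls and 100% = maraviroc near 300 nM; one replicate is shown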
# UUG fidelity = modulators of start codon recognition fidelity in yeast; AID 602363; 350,000 tested, 0.13% active; activity score, % at 18.7 µM; S. cerevisiae UUG-firefly luciferase reporter, luminescence/redox ratio;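 active = replicate mean at a twofold rise or more, about +100% in these data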;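 also: firefly luciferase made from a UUG start codon reports start codon fidelity; reporter light over untreated wells divided by growth signal over untreated wells; some hits fall short of that in this replicate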
# Starred values were filed as active, the others as inactive; [ ] = another dose, or the depositor's remark. This is a subset. The share of hits here may be higher or lower than overall.
SMILES,Env fusion inh,UUG fidelity
C[C@@H]1CCCCO[C@H](CN(C)C(=O)Nc2ccc(F)cc2)[C@@H](C)CN([C@H](C)CO)C(=O)c2cc(NC(=O)Nc3cccc4ccccc34)ccc2O1,-29[16.7 µM],-4
COc1ccc(NC(=O)Nc2cccc3c2O[C@@H](CN(C)S(=O)(=O)c2cccs2)[C@@H](C)CN([C@H](C)CO)C3=O)cc1,18[16.7 µM],8
N#C[C@@H]1[C@@H](c2ccccc2)[C@@H](CO)N1S(=O)(=O)c1ccc(-c2ccccc2)cc1,-3[16.7 µM],-1
Cc1ccccc1-c1cnc2c(c1)C(=O)N([C@H](C)CO)C[C@@H](C)[C@H](CN(C)C(=O)c1cccnc1)O2,-7[16.7 µM],-1
C[C@H](CO)N1C[C@H](C)[C@H](CN(C)C(=O)Cc2ccccc2)OCCCC[C@H](C)Oc2ccc(NC(=O)Nc3ccc(C(F)(F)F)cc3)cc2C1=O,-45[16.7 µM],-16
C[C@@H]1CN([C@H](C)CO)S(=O)(=O)c2ccc(C#CCN(C)C)cc2O[C@@H]1CN(C)C(=O)C1CC1,-6[16.7 µM],-1
C[C@H]1CN([C@@H](C)CO)C(=O)c2cccc(NC(=O)Nc3ccc(F)cc3)c2O[C@H]1CN(C)C(=O)Nc1cccc2ccccc12,-6[16.7 µM],-5
CCCN(C)C[C@H]1Oc2ncc(-c3ccccc3OC)cc2C(=O)N([C@H](C)CO)C[C@H]1C,2[16.7 µM],3
CNC[C@H]1Oc2ccc(NS(=O)(=O)c3cn(C)cn3)cc2CC(=O)N([C@@H](C)CO)C[C@H]1C,-9[16.7 µM],4
O=C(Cc1ccccn1)N[C@H]1CC[C@H](CC(=O)N2CCCCC2)O[C@@H]1CO,6[16.7 µM],-8
CO[C@@H]1CN(C)C(=O)c2cc(NC(=O)C3CC3)ccc2OC[C@@H](C)N(C(=O)Cc2ccccn2)C[C@@H]1C,-5[16.7 µM],34
C[C@@H](NC(=O)C[C@@H]1CC[C@H]2[C@@H](COC[C@H](O)CN2C)O1)c1ccccc1,-11[16.7 µM],-14
C[C@@H]1CN([C@@H](C)CO)C(=O)CCCn2cc(nn2)CO[C@@H]1CN(C)Cc1cccc2c1OCCCO2,7[16.7 µM],5
C[C@@H]1CN([C@H](C)CO)C(=O)CCCn2nncc2CO[C@@H]1CN(C)C(=O)CCCN(C)C,-2[16.7 µM],3
C[C@@H]1CCCCO[C@H](CN(C)S(=O)(=O)c2cn(C)cn2)[C@@H](C)CN([C@H](C)CO)C(=O)c2cc(NC(=O)Nc3ccc(F)cc3)ccc2O1,-2[16.7 µM],4
C[C@@H]1CN([C@H](C)CO)C(=O)c2cc(NC(=O)c3ccncc3)ccc2O[C@@H](C)CCCCO[C@H]1CN(C)C(=O)Nc1ccc(F)cc1,-18[16.7 µM],1
COCC#Cc1ccc2c(c1)O[C@H](CN(C)Cc1ccc(F)cc1)[C@H](C)CN([C@H](C)CO)S2(=O)=O,0[16.7 µM],1
CCCN(C)C[C@@H]1Oc2cc(-c3cccnc3)ccc2S(=O)(=O)N([C@@H](C)CO)C[C@@H]1C,3[16.7 µM],-14
CNC[C@H]1OCCCC[C@H](C)Oc2ccc(NS(=O)(=O)c3ccc(Cl)cc3)cc2C(=O)N([C@@H](C)CO)C[C@H]1C,-16[16.7 µM],4
COCC(=O)N1[C@@H](C#N)[C@@H](c2ccccc2)[C@@H]1CO,10[16.7 µM],-4
CC(=O)Nc1ccc2c(c1)C(=O)N(C)[C@@H]1CC[C@@H](CC(=O)NCc3ccccc3)O[C@H]1CO2,-4[16.7 µM],-3
Cc1ccc(S(=O)(=O)N(C)C[C@H]2Oc3ccc(NC(=O)CCC(F)(F)F)cc3C(=O)N([C@H](C)CO)C[C@@H]2C)cc1,7[16.7 µM],61
O=C(C[C@H]1CC[C@H](NS(=O)(=O)c2ccccc2)[C@H](CO)O1)NCc1ccccc1F,8[16.7 µM],2
C[C@H]1CN([C@@H](C)CO)C(=O)Cc2cc(NC(=O)Cc3ccccc3)ccc2O[C@@H]1CN(C)C(=O)Nc1ccc2c(c1)OCO2,-15[16.7 µM],29
C[C@H]1CN([C@@H](C)CO)C(=O)c2cc(NC(=O)NC3CCCCC3)ccc2O[C@@H]1CN(C)C,1[16.7 µM],1
# Next part
SMILES,Env fusion inh,UUG fidelity
CC(C)NC(=O)N(C)C[C@H]1OCCCC[C@H](C)Oc2ccc(NS(=O)(=O)c3cn(C)cn3)cc2C(=O)N([C@@H](C)CO)C[C@H]1C,16[16.7 µM],-5
C[C@H](CO)N1C[C@H](C)[C@@H](CN(C)C(=O)NC2CCCCC2)OCCCC[C@H](C)Oc2ccc(NC(=O)c3ccncc3)cc2C1=O,-103[16.7 µM],-5
C[C@@H]1CN([C@H](C)CO)C(=O)c2cc(C#CC3(O)CCCC3)cnc2O[C@@H]1CN(C)C(=O)C1CCC1,-17[16.7 µM],3
CC(=O)N(C)C[C@H]1Oc2ncc(-c3ccccc3C)cc2C(=O)N([C@@H](C)CO)C[C@H]1C,-7[16.7 µM],-16
C[C@H]1CN([C@@H](C)CO)C(=O)c2cccc(NC(=O)Nc3ccc(C(F)(F)F)cc3)c2O[C@@H]1CN(C)Cc1ccccc1,5[16.7 µM],-4
CS(=O)(=O)Nc1ccc2c(c1)[C@@H]1C[C@H](CC(=O)NCc3cccc(F)c3)O[C@H](CO)[C@@H]1O2,1[16.7 µM],-15
C[C@@H]1CN([C@@H](C)CO)C(=O)Cc2cc(NC(=O)Nc3ccccc3)ccc2O[C@@H]1CN(C)Cc1ccc(-c2ccccc2)cc1,23[16.7 µM],3
C/C=C/c1cnc2c(c1)C(=O)N([C@H](C)CO)C[C@H](C)[C@@H](CN(C)C(=O)C1CC1)O2,7[16.7 µM],-8
COc1ccc(S(=O)(=O)N(C)C[C@@H]2Oc3ccc(NS(=O)(=O)c4cn(C)cn4)cc3CC(=O)N([C@H](C)CO)C[C@@H]2C)cc1,12[16.7 µM],-9
C[C@H](CO)N1C[C@H](C)[C@@H](CN(C)S(=O)(=O)c2ccccc2)Oc2ncc(/C=C/c3ccccc3)cc2C1=O,12[16.7 µM],18
COc1ccccc1C(=O)Nc1ccc2c(c1)C(=O)N(C)C[C@H](OC)[C@H](C)CN[C@H](C)CO2,4[16.7 µM],-5
CCC(=O)N(C)C[C@@H]1Oc2ncc(-c3ccccc3OC)cc2C(=O)N([C@@H](C)CO)C[C@H]1C,-13[16.7 µM],-3
CCCNC(=O)N(C)C[C@@H]1Oc2ncc(C3=CCCCC3)cc2C(=O)N([C@@H](C)CO)C[C@@H]1C,9[16.7 µM],1
C[C@@H]1CCCCO[C@@H](CN(C)C(=O)CCC(F)(F)F)[C@@H](C)CN([C@@H](C)CO)C(=O)c2cc(NC(=O)C3CCCCC3)ccc2O1,19[16.7 µM],40
C[C@@H]1CN([C@H](C)CO)C(=O)Cc2cc(NS(=O)(=O)c3ccc(Cl)cc3)ccc2O[C@@H]1CN(C)S(=O)(=O)c1ccc(Cl)cc1,-13[16.7 µM],-18
C[C@H](CO)N1C[C@H](C)[C@H](CN(C)C(=O)Nc2ccc(F)cc2)Oc2ccc(NC(=O)Nc3ccccc3)cc2CC1=O,-8[16.7 µM],5
N#C[C@H]1[C@H](c2ccc(C3=CCCCC3)cc2)[C@@H](CO)N1C(=O)NC1CCCCC1,4[16.7 µM],-5
C[C@H]1CN([C@@H](C)CO)C(=O)c2cc(/C=C/c3ccccc3)cnc2O[C@@H]1CN(C)Cc1ccc2c(c1)OCO2,19[16.7 µM],-1
CCC(=O)N1C[C@H](O)COC[C@@H]2O[C@H](CC(=O)NCc3ccc(Oc4ccccc4)cc3)CC[C@H]21,-6[16.7 µM],6
C[C@@H]1CN([C@@H](C)CO)C(=O)c2cc(C#CC3CCCCC3)cnc2O[C@@H]1CN(C)S(C)(=O)=O,-11[16.7 µM],15
C[C@@H]1CN([C@H](C)CO)C(=O)Cc2cc(NC(=O)C3CCCCC3)ccc2O[C@@H]1CN(C)C(=O)Nc1cccc2ccccc12,10[16.7 µM],-1
O=C(Nc1ccc(F)cc1)Nc1ccc2c(c1)[C@@H]1C[C@H](CC(=O)N3CCCCC3)O[C@H](CO)[C@@H]1O2,90*[16.7 µM],27
CC(=O)N(C)C[C@@H]1Oc2ncc(C#CCc3ccccc3)cc2C(=O)N([C@H](C)CO)C[C@@H]1C,19[16.7 µM],7
C[C@H]1CN([C@@H](C)CO)C(=O)c2cc(-c3cccc(F)c3)cnc2O[C@@H]1CN(C)C(=O)Nc1ccccc1F,1[16.7 µM],-3
CO[C@H]1CN(C)C(=O)c2cc(NS(C)(=O)=O)ccc2OC[C@H](C)N(C(=O)CC2CC2)C[C@@H]1C,3[16.7 µM],-22

# A draw from above in order of molecular weight, largest number first:
SMILES,Env fusion inh,UUG fidelity
C[C@@H]1CN([C@H](C)CO)C(=O)Cc2cc(NC(=O)C3CCCCC3)ccc2O[C@@H]1CN(C)C(=O)Nc1cccc2ccccc12,10[16.7 µM],-1
O=C(Nc1ccc(F)cc1)Nc1ccc2c(c1)[C@@H]1C[C@H](CC(=O)N3CCCCC3)O[C@H](CO)[C@@H]1O2,90*[16.7 µM],27
COc1ccccc1C(=O)Nc1ccc2c(c1)C(=O)N(C)C[C@H](OC)[C@H](C)CN[C@H](C)CO2,4[16.7 µM],-5

# An excerpt taken from the entries so far, as a working copy:
SMILES,Env fusion inh,UUG fidelity
CC(C)NC(=O)N(C)C[C@H]1OCCCC[C@H](C)Oc2ccc(NS(=O)(=O)c3cn(C)cn3)cc2C(=O)N([C@@H](C)CO)C[C@H]1C,16[16.7 µM],-5
C[C@H](CO)N1C[C@H](C)[C@@H](CN(C)C(=O)NC2CCCCC2)OCCCC[C@H](C)Oc2ccc(NC(=O)c3ccncc3)cc2C1=O,-103[16.7 µM],-5
C[C@@H]1CN([C@H](C)CO)C(=O)c2cc(C#CC3(O)CCCC3)cnc2O[C@@H]1CN(C)C(=O)C1CCC1,-17[16.7 µM],3
CC(=O)N(C)C[C@H]1Oc2ncc(-c3ccccc3C)cc2C(=O)N([C@@H](C)CO)C[C@H]1C,-7[16.7 µM],-16
C[C@H]1CN([C@@H](C)CO)C(=O)c2cccc(NC(=O)Nc3ccc(C(F)(F)F)cc3)c2O[C@@H]1CN(C)Cc1ccccc1,5[16.7 µM],-4
CS(=O)(=O)Nc1ccc2c(c1)[C@@H]1C[C@H](CC(=O)NCc3cccc(F)c3)O[C@H](CO)[C@@H]1O2,1[16.7 µM],-15
C[C@@H]1CN([C@@H](C)CO)C(=O)Cc2cc(NC(=O)Nc3ccccc3)ccc2O[C@@H]1CN(C)Cc1ccc(-c2ccccc2)cc1,23[16.7 µM],3
C/C=C/c1cnc2c(c1)C(=O)N([C@H](C)CO)C[C@H](C)[C@@H](CN(C)C(=O)C1CC1)O2,7[16.7 µM],-8
COc1ccc(S(=O)(=O)N(C)C[C@@H]2Oc3ccc(NS(=O)(=O)c4cn(C)cn4)cc3CC(=O)N([C@H](C)CO)C[C@@H]2C)cc1,12[16.7 µM],-9

# Other results follow:
SMILES,Env fusion inh,UUG fidelity
C[C@@H]1CN([C@@H](C)CO)C(=O)c2cc(NC(=O)Nc3ccc(F)cc3)ccc2O[C@H]1CN(C)Cc1ccccc1,13[16.7 µM],-19
COc1ccc(S(=O)(=O)N(C)C[C@H]2Oc3ccc(NC(=O)Nc4cccc5ccccc45)cc3C(=O)N([C@@H](C)CO)C[C@@H]2C)cc1,37[16.7 µM],-20
C[C@@H]1CN([C@@H](C)CO)C(=O)c2cccc(NS(=O)(=O)c3ccc(F)cc3)c2O[C@@H]1CN(C)C(=O)Nc1ccc2c(c1)OCO2,-18[16.7 µM],-3
O=c1[nH]c(=S)[nH]cc1Oc1ccc(Br)cc1Br,-12,-16
COc1cccc(NC(=O)N[C@@H]2C=C[C@H](CC(=O)NCc3ccncn3)O[C@H]2CO)c1,-4[16.7 µM],-5
COc1ccc(NC(=O)N(C)C[C@@H]2Oc3ccc(NC(=O)Nc4ccc(F)cc4)cc3C(=O)N([C@@H](C)CO)C[C@H]2C)cc1,-5[16.7 µM],5
CCCC#Cc1ccc2c(c1)O[C@H](CN(C)C(=O)C1CCCCC1)[C@@H](C)CN([C@H](C)CO)S2(=O)=O,23[16.7 µM],-5
C[C@@H]1CN([C@@H](C)CO)C(=O)c2cc(NC(=O)Nc3cccc4ccccc34)ccc2O[C@@H](C)CCCCO[C@@H]1CN(C)S(=O)(=O)c1cn(C)cn1,6[16.7 µM],1
O=C(O)C[C@H]1C[C@H]2c3cc(NC(=O)CC4CC4)ccc3O[C@H]2[C@H](CO)O1,-1[16.7 µM],-4
CN(C)CC(=O)N[C@@H]1CC[C@@H](CCNC(=O)Nc2ccc(C(F)(F)F)cc2)O[C@H]1CO,-2[16.7 µM],37
C[C@@H]1CN([C@@H](C)CO)C(=O)c2cc(C#C[C@@H](C)O)cnc2O[C@@H]1CN(C)C(=O)CC1CC1,5[16.7 µM],-1
COc1cccc(S(=O)(=O)N[C@@H]2C=C[C@H](CC(=O)NCc3ccc(F)cc3)O[C@@H]2CO)c1,-17[16.7 µM],14
COc1ccc(S(=O)(=O)Nc2cccc3c2O[C@H](CN(C)S(=O)(=O)c2ccccc2)[C@H](C)CN([C@@H](C)CO)C3=O)cc1,2[16.7 µM],-6
CC(C)NC(=O)Nc1ccc2c(c1)C(=O)N([C@H](C)CO)C[C@H](C)[C@@H](CN(C)C(=O)Nc1ccc(C(F)(F)F)cc1)OCCCC[C@@H](C)O2,-10[16.7 µM],-5
C[C@H](CO)N1C[C@H](C)[C@H](CN(C)C(=O)Nc2ccccc2)Oc2ncc(C#Cc3ccc(F)cc3)cc2C1=O,15[16.7 µM],2
C[C@@H]1CN([C@@H](C)CO)C(=O)c2cccc(NC(=O)Nc3ccc4c(c3)OCO4)c2O[C@H]1CN(C)S(C)(=O)=O,9[16.7 µM],-5
COCc1cn(CC[C@@H]2CC[C@@H](NC(=O)c3ccc(F)cc3)[C@H](CO)O2)nn1,6[16.7 µM],1
N#C[C@@H]1[C@H](c2ccc(C3=CCCCC3)cc2)[C@H](CO)N1C(=O)Nc1ccccc1F,19[16.7 µM],-6
COCc1cn(CC[C@@H]2CC[C@@H](NC(=O)Cc3cccnc3)[C@H](CO)O2)nn1,9[16.7 µM],-17
